Screening results: PubChem, National Center for Advancing Translational Sciences (NCATS)
Six1-Eya2 blk: Six1/Eya2 interaction inhibition. Q15475+O00167. AlphaScreen GST-Six1/His-Eya2 binding, biochemical; stronger effect = lower value; control for the full effect not named in the record. activity change, % (no concentration beside the values). 0.56% of 360,000 active. AID 651725; in the data active = activity change below about -65%; inconclusive = about -30% to -65%; inactive = above about -30%; also: % is scaled to controls: 0 for no effect and ±100 for the full control effect; compound concentration not given in the record
Target sequence (O00167 whole entry, looked up): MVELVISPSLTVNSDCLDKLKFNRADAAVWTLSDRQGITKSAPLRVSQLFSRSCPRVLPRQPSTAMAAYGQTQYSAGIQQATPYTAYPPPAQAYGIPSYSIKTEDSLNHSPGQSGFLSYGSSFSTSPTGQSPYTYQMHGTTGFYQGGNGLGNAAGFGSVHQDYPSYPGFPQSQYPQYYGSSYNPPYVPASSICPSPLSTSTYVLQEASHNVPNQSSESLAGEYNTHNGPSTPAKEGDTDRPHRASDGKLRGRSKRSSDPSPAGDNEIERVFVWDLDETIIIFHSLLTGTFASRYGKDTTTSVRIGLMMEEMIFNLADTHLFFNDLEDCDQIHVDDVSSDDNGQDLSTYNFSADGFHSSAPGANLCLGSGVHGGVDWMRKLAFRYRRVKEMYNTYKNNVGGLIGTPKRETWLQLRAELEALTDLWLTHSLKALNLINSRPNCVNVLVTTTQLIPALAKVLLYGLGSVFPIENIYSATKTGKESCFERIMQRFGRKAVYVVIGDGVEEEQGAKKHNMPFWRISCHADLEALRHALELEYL
Target sequence (Q15475 whole entry, looked up): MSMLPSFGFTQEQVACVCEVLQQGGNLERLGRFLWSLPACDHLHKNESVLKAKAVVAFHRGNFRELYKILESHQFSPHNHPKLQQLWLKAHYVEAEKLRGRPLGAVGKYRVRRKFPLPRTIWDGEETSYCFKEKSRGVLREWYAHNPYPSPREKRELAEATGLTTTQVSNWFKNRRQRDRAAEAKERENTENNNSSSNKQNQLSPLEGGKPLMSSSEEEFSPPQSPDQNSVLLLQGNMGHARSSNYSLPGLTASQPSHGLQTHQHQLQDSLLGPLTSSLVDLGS
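Six1/Eya2 binding was read as AlphaScreen signal after compounds were pinned into GST-Six1 plus His-tagged Eya2 (5X stock 250/500 nM) in pH 8.0 Tris/NaCl/TCEP buffer, beads added, then incubated 1 h, 37 C, dark.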
TRPML1 agonist: human mucolipin-1 channel agonism; Q9GZU1; TRPML1-expressing cells, Ca2+ dye fluorescence, FDSS; host cell line not named in the record; reference of the full effect not given here; activation, % (no concentration beside the values); 0.12% of 410,000 active; in the data active = activation above about 50%; inconclusive = about 30% to 50%; inactive = below about 30%; also: 0% is about no effect; the text of the record puts the active cut at 80%
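Tet-induced TRPML1-DL cells, 1,500 per well, cultured overnight, were loaded with a no-wash Ca2+ dye for 45–90 min. Calcium fluorescence was recorded on the FDSS for 110 s after compound addition, before the EC80 agonist (4 uM 54-4) was added.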
CtBP-E1A inh: blocks the CtBP interaction with E1A | 0.49% of 340,000 active | activity change, % (no concentration beside the values) | AlphaScreen GST-E1A/His-CtBP binding, 1536-well; stronger effect = lower value; control for the full effect not named in the record; in the data active means activity change below about -65%; inconclusive means about -30% to -65%; inactive means above about -30%; also: % is scaled to controls: 0 for no effect and ±100 for the full control effect; compound concentration not given in the record
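In 5 uL wells, 23 nL compound meets equimolar GST-E1A and His-CtBP (5X stock 125 nM each) for 2 h, 37 °C. Beads (5X, 50 ug/mL) then 1 h, 37 °C, dark.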
TRPML1 blocker: inhibitors of human TRPML1 channel; Q9GZU1; TRPML1-inducible cells, Ca2+ dye fluorescence, FDSS; stronger effect = lower value; inhibition of EC80 agonist-evoked calcium signal; activity change, negative = inhibition, % (concentration not given with the values); 0.02% of 390,000 active; AID 624415; in the data active means activity change below about -50%; inconclusive means about -30% to -50%; inactive means above about -30%;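 also: stimulus is agonist 54-4 at its EC80 concentration; % is scaled to controls: 0 for no effect and ±100 for the full control effect; compound concentration not given in the record; the text of the record puts the active cut at -80%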
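Tet-induced TRPML1-DL cells loaded with Ca8 no-wash calcium dye were read kinetically on FDSS. Compound addition was followed by EC80 agonist 54-4 (4 uM final); inhibition was read over 110 s.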
D2 ag: agonists of human D2 dopamine receptor (beta-arrestin) | DiscoveRx PathHunter D2 beta-arrestin, luminescence, 90 min; 100% = 57 uM dopamine signal | activation, % (no concentration beside the values) | AID 624465 | 0.084% of 360,000 active | P14416; in the data active = activation above about 40%; inconclusive = about 15% to 40%; inactive = below about 15%; also: compound concentration not given in the record; the text of the record calls up to 30% inactive
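DiscoveRx PathHunter D2 beta-arrestin cells (2,100/well) attached overnight, then compound-stimulated 90 min at 37 C in HBSS/10 mM HEPES/0.1% Tween-20 buffer; beta-galactosidase complementation read by luminescence after 1 h at ambient temperature. Dopamine 57 uM final (EC100) as control.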
PINK1 expr mod: modulators of PINK1 expression. 0.2% of 410,000 active. Potency, µM (highest dose often 76.6 µM), for inactives: top-dose activation (PINK1 increase), actives largely listed as activators. PINK1 immunofluorescence, high-content cytometry, 24 h; active = well fitted activation curve with a large enough effect; inconclusive = small, poorly fitted or top-dose-only effect; inactive = flat fitted curve, though single readings scatter; cell line not stated here;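 also: potency is read from the fitted curve at half-maximal effect; % of control where 0% means no effect; nearly all actives have a fitted effect of over 65% in size; a mitochondrial uncoupler was the plate control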
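Compound titrations (5 concentrations, 24 h) on a stable cell line; DMSO and CCCP controls. Endpoint: fixed-cell PINK1 immunofluorescence with mitochondrial, cell and nuclear markers, scanned by microplate cytometer.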
Active calls of the source: *; ? = inconclusive; / = not tested or not shown; [ ] = remark or other dose.

Molecule	Six1-Eya2 blk	TRPML1 agonist	CtBP-E1A inh	TRPML1 blocker	D2 ag	PINK1 expr mod
Cc1cc(N2CCN(C)CC2)nc2ccc(NC(=O)CCC3CCCC3)cc12	2	-1.4	3	-14	-2.5	-2.7%
O=C(NC(=S)N1CCN(C(c2ccccc2)c2ccccc2)CC1)c1ccc(S(=O)(=O)N2CCOCC2)cc1	-12	-1.4	-1	19	-13	1.9%
CCc1sc(C(C2C(=O)CC(C)(C)CC2=O)C2C(=O)CC(C)(C)CC2=O)cc1[N+](=O)[O-]	-1	-1.1	0	25	-4.2	-2.0%
Cc1ccc(OCC(=O)NCCNC(=O)c2ccc(C)nc2)cc1	0	-0.5	-14	-4	0.4	0.5%
COc1cc(OC)cc(-n2nnnc2SCC(=O)N2CCCc3ccccc32)c1	2	0.0	5	-8	-0.7	/
COc1ccc(N(Cc2cc3ccccc3[nH]c2=O)C(=O)C2CCCO2)cc1 (centres undefined)	9	-0.5	1	-1	-0.7	-1.4%
O=S(=O)(CCc1nc2ccccc2o1)c1ccc(Cl)cc1	1	0.1	1	30	-1.2	0.0%
CCC(C)[C@H](NC(=O)NCc1ccccc1Cl)C(=O)O (some centres undefined)	9	3.5	4	25	-2.9	1.2%[38.3 µM]
COc1ccccc1NC(=O)Cn1c(=O)n(-c2cccc(C(C)=O)c2)c(=O)c2c3c(sc21)CN(C(C)=O)CC3	/	-0.5	/	-8	/	1.9%
O=C(Nc1ccc(S(=O)(=O)Nc2ncccn2)cc1)c1ccco1	2	-0.2	3	-5	-4.1	-2.5%

Full records from above:
Results for Cc1ccc(OCC(=O)NCCNC(=O)c2ccc(C)nc2)cc1 : Six1-Eya2 blk = 0; TRPML1 agonist = -0.5; CtBP-E1A inh = -14; TRPML1 blocker = -4; D2 ag = 0.4; PINK1 expr mod = 0.5%
Results for O=C(Nc1ccc(S(=O)(=O)Nc2ncccn2)cc1)c1ccco1 : Six1-Eya2 blk = 2; TRPML1 agonist = -0.2; CtBP-E1A inh = 3; TRPML1 blocker = -5; D2 ag = -4.1; PINK1 expr mod = -2.5%

(more compounds)
Molecule	Six1-Eya2 blk	TRPML1 agonist	CtBP-E1A inh	TRPML1 blocker	D2 ag	PINK1 expr mod
CC1=C(C(=O)N2CCOCC2)CC(CC(=O)NCCc2ccccn2)C(=O)N1Cc1ccc(C(C)(C)C)cc1 (centres undefined)	-16	0.1	-14	-2	-0.5	0.9%
CCn1cnc2sc(C(=O)N3CCN(c4ccc(OC)cc4)CC3)c(C)c2c1=O	-14	0.2	-18	35	2.4	-5.5%[38.3 µM]
CNC(=S)NCCC(c1ccccc1)c1ccccc1	-9	3.1	3	31	0.6	1.0%
O=C(CSC1=Nc2ccccc2C2=NC(CCC(=O)NC3CCCCC3)C(=O)N12)Nc1cccc(C(F)(F)F)c1 (centres undefined)	/	0.2	/	-16	/	-1.0%
CCOc1ccc(CN(C)CC(=O)Nc2cccc3ccccc23)cc1OC	0	0.1	-6	-8	-0.2	-1.1%
Cc1cc(NC(=O)NC(=O)c2ccc(F)cc2F)n[nH]1	-14	-0.3	-2	-14	0.2	2.1%
O=C(NCCc1cn2ccccc2n1)c1ccc(Br)o1	-4	0.4	-9	-2	-1.4	-0.2%
C#CCOCCOCCOCCNc1nc(N2CCN(C(=O)[C@H]([C@@H](C)CC)n3cc([C@@H](N)CO)nn3)CC2)nc(N2CCN(C(=O)[C@H]([C@@H](C)CC)n3cc([C@@H](N)CC(C)C)nn3)CC2)n1	-15	-0.7	-11	-3	-2.8	1.5%
Cc1ccc2nc(-c3ccncc3)cc(C(=O)Nc3ccncc3)c2c1	6	-0.4	4	-1	?	5.4%
COc1cccc(CC(=O)N2CCN(c3ccccc3[N+](=O)[O-])CC2)c1	8	0.8	-8	-9	-1.7	-0.5%
Cc1cccc(NC(=O)c2cccnc2Cl)n1	2	0.7	6	45	-1.7	-0.1%
CCOc1ccc(NC(=O)CN(C)C(=O)c2ccccc2CCc2ccccc2)cc1OCC	-9	2.0	-9	-6	15	5.1%
CC(=O)OC1c2ccccc2C(=O)N1Cc1ccccc1Cl (centres undefined)	2	0.0	7	9	-5.4	-0.5%
Cc1csc(C(=O)NN)c1N(C)C	0	5.3	-6	4	-5.5	0.4%
CCOC(=O)c1ccc(NC(=O)C2=C(C)Nc3nc(SCc4ccc(Cl)cc4)nn3C2c2ccc(C)cc2)cc1 (centres undefined)	/	0.3	/	16	/	-0.1%
CCCCn1cc(S(=O)(=O)c2cc(C)ccc2C)c(=O)c2cc(F)c(N3CCC(C)CC3)cc21	/	1.9	/	-7	/	-5.6%
COc1ccc(C(=O)NNC(=O)CCc2nc3ccccc3c(=O)[nH]2)cc1	7	-0.6	5	5	-0.1	-3.3%
CCOC(=O)c1c(NC(=O)CSc2nnc(-c3c[nH]c4ccccc34)n2CCOC)sc2c1CCCC2	-4	-0.3	-17	1	-4.5	3.2%
Cc1ccc(C(=O)CNc2ccc(C)c(Cl)c2)cc1	1	-0.4	8	10	-8.2	0.4%
Cc1cc(C(=O)N/N=C2\CC(=O)CC(C)(C)C2)n[nH]1	-1	-0.3	1	-5	-0.6	2.4%[38.3 µM]
O=C(COc1ccc(Cl)cc1Cl)NC(=O)c1ccccc1	5	0.3	-20	9	-0.7	-1.2%
CCOc1ccc(NC(=O)CSc2nnc(C3CC3)n2C)cc1	7	-0.4	4	-7	2.5	-1.0%
CCNC(=O)C1CC(=O)N(CC)C(=Nc2cc(Cl)c(O)c(Cl)c2)S1 (centres undefined)	4	2.3	-4	-4	-2.2	-3.5%
CCOC(=O)c1ccc(N/C=C2/CCCC(C)C2=O)cc1 (centres undefined)	3	-0.6	-9	-2	3.0	-0.4%
CC(=O)OC(C[N+]1(C)CCCCCC1)c1ccccc1 (centres undefined)	7	0.3	/	5	-2.7	1.0%
COc1ccccc1NC(=O)Nc1ccc2c(c1)nc(C)n2C	4	0.0	5	17	-2.9	-0.1%
COc1ccc(Cl)cc1C1CC(=O)Nc2cc3c(cc21)OCCO3 (centres undefined)	/	-0.2	/	5	/	7.3%
COc1cc(Cl)c(C)cc1NC(=O)CSc1sc2c(O)cc(=O)[nH]c2c1C#N	-9	-0.1	-6	-3	-3.0	-0.8%
Cn1c(=O)c2c(SCc3ccccn3)nc(C3CC3)nc2n(C)c1=O	-8	0.7	-6	-7	-3.2	0.4%
O=C(NC1CCCC1)C1c2ccccc2OCC(=O)N1CCCN1CCOCC1 (centres undefined)	5	0.1	-1	/	/	0.8%
Cc1ccc(-c2nnn(CC(=O)N3C(C)CCCC3C)n2)cc1 (centres undefined)	-4	0.6	-16	-9	-0.5	0.1%
Cc1ccc(-n2[nH]c(C)c(C=Nc3ccc(Br)cn3)c2=O)cc1	2	1.7	/	2	-2.8	9.5%
COC(=O)c1ccc2nc(C3CCCCC3)c(Cc3ccc(C)cc3)n2c1	1	-0.5	2	21	-7.0	5.7%
O=C(NC1CCCCC1)C(c1ccccc1)N(C(=O)c1csnn1)C1CC1 (centres undefined)	-1	-0.6	9	3	1.7	-1.1%
CC(=O)c1ccc(NC(=O)N2CCN(c3ccc(C)cc3)C(C)C2)cc1 (centres undefined)	-12	0.3	/	18	1.5	0.2%
Cc1cccc(C(=O)NCC(C)NC(=O)c2cccc(C)c2)c1 (centres undefined)	-18	0.1	-1	-15	0.6	-1.2%
O=C(O)c1ccc(CN2C[C@@H](CO)O[C@@H](n3cnc4c(NCc5ccc(F)cc5)ncnc43)C2)cc1	0	0.1	4	-1	3.8	0.2%
CCOc1ccc(NC(=O)n2ncc3c(C)cccc32)cc1	-2	0.5	-5	-2	-0.9	-1.6%
COCc1cc(Sc2ccc(OC)cc2)nc(-c2ccccc2)n1	38	0.4	38	-5	-5.5	5.3%
CCN(CC)C(=O)c1sc(NC(=O)c2ccoc2C)c(C(=O)OC)c1C	2	-0.1	-4	33	-3.8	-2.1%
CN(C(=O)c1cccc(NC(=O)Cc2ccc(NC(=O)C3CCCN(C(=O)C4CCC4)C3)cc2)c1)C1CCCC1 (centres undefined)	2	0.1	-8	3	-3.4	-0.5%
CC(C)c1nccn1S(=O)(=O)c1cccc([N+](=O)[O-])c1	11	0.3	4	30	-2.9	1.1%
O=C(O)CCC(=O)Nc1ccc(Oc2ncnc3cc(Cl)ccc23)nc1	11	1.3	-1	8	-0.5	0.2%
CSc1sccc1/C=N/O	3	-0.6	6	0	3.3	-1.8%
Cn1c(=O)c2c(nc(CN3CCN(c4cccc(Cl)c4)CC3)n2CCc2ccccc2)n(C)c1=O	-25	3.2	-15	4	-6.2	0.2%
Cc1nn(C)c(C)c1C1C(C#N)=C(N)OC2=C1C(=O)CC(C)(C)C2 (centres undefined)	-3	-0.5	-7	3	2.6	-2.1%
COc1ccc(N(C(=O)c2csnn2)C(C(=O)NC2CCCC2)c2cccs2)cc1 (centres undefined)	6	1.0	5	-6	6.0	2.9%
CC1(C)CC2CC(C)(CN2S(=O)(=O)c2ccc(N)cc2)C1 (centres undefined)	0	-1.5	9	23	-0.2	0.2%
CN(C)S(=O)(=O)c1ccc(C(=O)OCC(=O)NC(=O)NCc2ccccc2)cc1	3	-0.3	-1	2	-2.5	1.9%
CC(=O)Nc1cccc(N/C(N)=N/c2nc(C)cc(C)n2)c1	2	-0.3	-17	-14	-7.0	-1.3%

Continued.
Molecule	Six1-Eya2 blk	TRPML1 agonist	CtBP-E1A inh	TRPML1 blocker	D2 ag	PINK1 expr mod
Cc1ccc(Cn2c(=O)c3ccccc3n3c(-c4ccccc4)nnc23)cc1	/	-1.1	/	4	/	0.8%
CC1(C)CC(=O)C2=C(C1)NC(SCC(=O)Nc1ccccc1)=C(C#N)C2c1ccco1 (centres undefined)	-10	-0.2	-4	-2	0.4	2.2%
Cc1ccc(C)c(N2CCN(C(=O)CCNS(=O)(=O)c3ccc4c(c3)CCN4C(=O)C3CC3)CC2)c1	/	1.3	/	-14	/	-3.9%
O=C1NC[C@@H](CCCCN2C[C@H](Cc3ccc(O)cc3)N(CC3CCCCC3)C(=O)C2=O)N(CCc2ccccc2)C1=O	-6	-0.3	2	/	/	0.5%
CC(C)(C)c1ccc(Oc2ccc(NC(=O)c3ccccc3C(=O)O)cn2)cc1	25	2.2	/	-1	4.5	3.4%
CCOC(=O)CN1N=C(c2ccc(Cl)s2)CSC1=O	-4	0.7	10	5	-2.3	0.6%
Cc1cccc(OCC(=O)Nc2cccc(OCc3cc(=O)n4cccc(C)c4n3)c2)c1	/	0.5	/	6	/	2.2%
COc1ccc(C(=O)NCCn2cc(SCc3c(F)cccc3Cl)c3ccccc32)cc1	/	2.1	/	-6	/	0.1%
COc1ccc(C)cc1CN(C)c1ccc(S(=O)(=O)N2CCN(C)CC2)cn1	-17	0.2	-9	7	-3.4	2.7%
Cc1ccccc1CCN(C(=O)c1csnn1)C(C(=O)NC1CCCC1)c1ccco1 (centres undefined)	-3	-0.8	17	8	-6.4	0.5%
